CtBP-E1A inh = qHTS Assay for Inhibitors of the CtBP/E1A Interaction | 0.49% of 340,000 active | AID 651724, 2012 | AlphaScreen GST-E1A/His-CtBP binding, 1536-well; active compounds read low; control for the full effect not named in the record | activity change, % (no concentration beside the values); in the data active means activity change below about -65%; inconclusive means about -30% to -65%; inactive means above about -30%; note: % is set by controls: 0 for no effect and ±100 for the full control effect
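GST-E1A and His-tagged CtBP (125 nM each as 5X stock) were preincubated with pin-transferred compound for 2 h at 37 °C in the dark, then glutathione donor and nickel acceptor beads were added for 1 h before AlphaScreen reading.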
ClpP mod = qHTS Assay for Activators of ClpP; ATP-dependent Clp protease proteolytic subunit (Bacillus subtilis (strain 168)), P80244; purified B. subtilis ClpP, FRET peptide cleavage, 20 min; Potency, µM (top dose mostly 57.5 µM), without a hit: top-dose activity change, negative = active; 1.9% of 340,000 active; AID 651965, 2013; active = well fitted falling curve with a large enough effect; inconclusive = small, poorly fitted or top-dose-only effect; inactive = no such curve, though single readings can be large or run the other way; note: potency is the fitted concentration of half-maximal effect; the source files actives as falling curves though it sought activators and does not explain the sign; nearly all actives have a fitted effect of over 65% in size; many hits overshoot -100%
Target sequence (P80244 whole entry, looked up): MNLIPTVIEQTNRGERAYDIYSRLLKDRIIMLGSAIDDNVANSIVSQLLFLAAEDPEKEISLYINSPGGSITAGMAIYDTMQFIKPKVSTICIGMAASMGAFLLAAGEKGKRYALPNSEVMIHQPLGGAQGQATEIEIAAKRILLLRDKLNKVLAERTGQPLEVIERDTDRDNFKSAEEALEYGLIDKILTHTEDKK
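FRET quenching reversal measured ClpP activation: 10 microg/mL B. subtilis ClpP at pH 8 with the FRET-FV decapeptide, read at 430 nm after 320 nm excitation. The 20-min minus 0-min signal was scaled between DMSO/no-enzyme wells and ADEP (5.8 microM final).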
Sfp PPTase inh = qHTS Assay for Inhibitors of Bacillus subtilis Sfp phosphopantetheinyl transferase (PPTase); AID 1490, 2009; Biochemical Sfp PPTase activity, qHTS; 3.5% of 310,000 active; Potency, µM, for inactives: max response, negative = inhibition, most hits filed as inhibitors; active = well fitted inhibition curve with a large enough effect; inconclusive = small, poorly fitted or top-dose-only effect, or another doubt; inactive = no such curve, though single readings can be large or run the other way;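 note: the enzyme is Sfp with the accession as filed and its product quenches rhodamine fluorescence; potency is the fitted concentration of half-maximal effect; 0% = enzyme reaction without inhibitor and -100% = no enzyme wells; top concentration of the series not given in the record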
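Buffer: 50 mM Hepes-Na pH 7.6, 10 mM MgCl2, 0.01% Nonidet P-40, 0.01% BSA. Enzyme 15 nM, pre-exposed to compound 15 min; substrates then added and fluorescence change tracked over 30 min.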
gsp agonist = qHTS for Agonist of gsp, the Etiologic Mutation Responsible for Fibrous Dysplasia/McCune-Albright Syndrome: qHTS | AID 624287, 2012 | 0.13% of 340,000 active | gsp mutant cells, cAMP HTRF, 30 min; control for the full effect not named in the record | Potency, µM (series often up to 76.9 µM), without a hit: at the top dose activation (cAMP increase), hits mostly activators; active = well fitted activation curve with a large enough effect; inconclusive = small, poorly fitted or top-dose-only effect, or another doubt; inactive = no such curve, though single readings can be large or run the other way; cell line not stated here;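 note: phosphodiesterase inhibitor Ro 20-1724 added with compounds to block cAMP breakdown; potency is the fitted concentration of half-maximal effect; nearly all actives have a fitted effect of over 60% in size; about a fifth of the inactives were tested at one dose only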
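Cells in DMEM/10% FBS with G418 were pretreated with compounds in DMSO plus […] (300 uM stock) for 30 min at 37C. cAMP was measured by HTRF (cAMP-d2 plus anti-cAMP antibody-K) after 30 min at room temperature.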
TRPV1 PAM = HTS Assay for Compounds that Act as Potentiators of the Vanilloid Receptor 1 | TRPV1-expressing cells, Fluo-8 calcium influx, capsaicin EC20 potentiation; host cell line not named in the record; control for the full effect not named in the record | potentiation, % at 8.33 µM | 0.02% of 320,000 active | AID 540277, 2011; active means potentiation above 80%; inconclusive means 30% to 80%; inactive means below 30%; note: 0% is about no effect
Target sequence (Q8NER1 whole entry, looked up): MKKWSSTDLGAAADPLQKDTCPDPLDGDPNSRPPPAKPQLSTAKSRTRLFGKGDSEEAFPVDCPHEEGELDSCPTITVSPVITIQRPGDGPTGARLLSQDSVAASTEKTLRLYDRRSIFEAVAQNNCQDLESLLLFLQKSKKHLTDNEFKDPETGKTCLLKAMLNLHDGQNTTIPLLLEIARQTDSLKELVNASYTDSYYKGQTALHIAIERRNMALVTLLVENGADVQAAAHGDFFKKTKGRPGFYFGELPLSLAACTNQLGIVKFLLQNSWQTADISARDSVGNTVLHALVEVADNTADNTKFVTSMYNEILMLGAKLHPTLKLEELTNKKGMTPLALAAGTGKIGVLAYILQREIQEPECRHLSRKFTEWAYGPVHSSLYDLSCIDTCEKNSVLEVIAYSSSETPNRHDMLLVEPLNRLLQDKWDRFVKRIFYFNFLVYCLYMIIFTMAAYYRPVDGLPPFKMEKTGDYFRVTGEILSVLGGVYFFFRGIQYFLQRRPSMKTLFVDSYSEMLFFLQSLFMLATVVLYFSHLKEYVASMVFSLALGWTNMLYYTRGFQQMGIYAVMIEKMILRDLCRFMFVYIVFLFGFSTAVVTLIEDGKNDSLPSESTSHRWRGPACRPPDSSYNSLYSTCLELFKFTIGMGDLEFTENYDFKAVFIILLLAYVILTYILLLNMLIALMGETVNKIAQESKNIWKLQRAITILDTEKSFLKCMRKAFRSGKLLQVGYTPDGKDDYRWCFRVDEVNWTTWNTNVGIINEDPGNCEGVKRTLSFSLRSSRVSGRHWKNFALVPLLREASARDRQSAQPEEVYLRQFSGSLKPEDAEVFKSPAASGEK
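Cells expressing TRPV1 were dye-loaded with Fluo-8 and read kinetically: 10 s baseline, 3 min after compound (agonist portion), then 2 min after EC20 capsaicin (allosteric enhancer portion). Calcium-bound dye fluorescence at 480/520 nm.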
gsp antagonist = qHTS for Antagonists of gsp, the Etiologic Mutation Responsible for Fibrous Dysplasia/McCune-Albright Syndrome: qHTS; Potency, µM (doses to about 76.9 µM), for the others: top-dose activity change, negative = inhibition, hits mostly inhibitors; gsp-mutant cells, cAMP HTRF, 30 min; control for the full effect not named in the record; 0.4% of 340,000 active; active = falling curve of any shape with a large fitted effect; inconclusive = falling curve, mostly with a smaller effect; inactive = flat or rising curve; cell line not stated here;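 note: intracellular cAMP measured with PDE inhibitor Ro 20-1724 present during compound exposure; potency is the fitted concentration of half-maximal effect; % is set by controls: 0 for no effect and ±100 for the full control effect; nearly all actives have a fitted effect of over 65% in size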
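Cells, 2000/well, grown 16–24 h in DMEM 10% FBS with 0.5 mg/ml G418, then compounds plus […] (300 uM addition stock), 30 min at 37C. cAMP read by HTRF (cAMP-d2 and anti-cAMP antibody-K in lysis buffer) after 30 min RT.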
Menin-MLL FL inh = qHTS Assay for Inhibitors Targeting the Menin-MLL Interaction in MLL Related Leukemias: Competition With Fluorescein Labeled MLL-derived Peptide; FP activity change, % at 61.4 µM; Fluorescence polarization, fluorescein-MLL peptide displacement from menin; AID 1766, 2009; 290,000 tested, under 10 active; inconclusive = falling polarisation curve, or a change in total fluorescence; inactive = total fluorescence flat and polarisation flat or rising; no compound was filed as active; the % refers to the polarisation; negative = inhibition;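 note: % of control where 0% means no effect; inhibitors lower the polarisation; unlabelled MLL peptide was the positive control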
The depositor's hits bear a star; & = joins results of further samples; [ ] = remark or other dose.

How did O=C(NCC1CCCO1)c1cc2c(s1)CCCC2 (centres undefined) do in these assays?
CtBP-E1A inh: 6; ClpP mod: -2.0%; gsp agonist: 13%; TRPV1 PAM: -4; gsp antagonist: -4%

Results for CCCCOc1ccc(CNC(=O)NS(=O)(=O)c2ccc(OCC)cc2)cc1 ?
CtBP-E1A inh: 1; ClpP mod: 0.0%; Sfp PPTase inh: -5%; gsp agonist: 1%; TRPV1 PAM: 11; gsp antagonist: -10%; Menin-MLL FL inh: -0.3

How did COc1ccc(Cl)cc1C(=O)Nc1ccc(NC(C)=O)cc1 do in these assays?
CtBP-E1A inh: -7; Sfp PPTase inh: 17%; gsp agonist: -14%; TRPV1 PAM: -13; gsp antagonist: 35µM*; Menin-MLL FL inh: -2.4

What do the screens show for `Cc1ccc(S(=O)(=O)N2CCOCC2)cc1NC(=O)COC(=O)Cc1ccc(Cl)cc1`?
CtBP-E1A inh: 2; ClpP mod: -14%; gsp agonist: 3%; gsp antagonist: -4%

Results for Cc1cccc(NC(=O)CCCN2C(=O)C(c3ccccc3)Oc3cccnc32)c1C (centres undefined) ?
CtBP-E1A inh: -25; ClpP mod: -1.2%; Sfp PPTase inh: 3%; gsp agonist: 9%; TRPV1 PAM: -15; gsp antagonist: -13%

What do the screens show for `COc1ccc(CNC(=O)c2ccc3c(c2)N(C)C(=O)CS3=O)cc1` (centres undefined)?
CtBP-E1A inh: 1; ClpP mod: 1.7%; Sfp PPTase inh: 45µM*; gsp agonist: -3%; gsp antagonist: -13%; Menin-MLL FL inh: 0.8

What do the screens show for `COc1ccc(COC(=O)C2=C(C)NC(=O)NC2c2cc(Br)c(O)c(OC)c2)cc1` (centres undefined)?
CtBP-E1A inh: -5; ClpP mod: -1.4%; Sfp PPTase inh: 5%; gsp agonist: 4%; TRPV1 PAM: 8; gsp antagonist: -11%; Menin-MLL FL inh: 3.0

How did Cc1nc2ccc(NC(=O)c3ccc(Cl)c(S(=O)(=O)N(C)c4ccccc4)c3)cc2s1 do in these assays?
CtBP-E1A inh: 4; ClpP mod: -4.3%; Sfp PPTase inh: 4%; gsp agonist: 9%[15.4 µM]; TRPV1 PAM: -33; gsp antagonist: -24%

What do the screens show for `COc1cc(/C=C2/C(=O)N(c3ccc(Br)cc3)N=C2C)cc([N+](=O)[O-])c1O`?
Sfp PPTase inh: -11%; TRPV1 PAM: 6; Menin-MLL FL inh: 1.9

What do the screens show for `Cc1ccc(NC(=O)CSCC(=O)Nc2cc(Cl)ccc2N2CCOCC2)cc1`?
CtBP-E1A inh: 7; gsp agonist: 6%[15.4 µM]; TRPV1 PAM: 6; gsp antagonist: -15%

How did O=C1NN=C2CCCCCC12 (centres undefined) do in these assays?
CtBP-E1A inh: -5; ClpP mod: -3.7%; gsp agonist: 33%

Results for O=C(Cn1nc(-c2ccccc2F)ccc1=O)NCc1ccc2c(c1)OCO2 ?
CtBP-E1A inh: 2; ClpP mod: -0.4%; Sfp PPTase inh: -1%; gsp agonist: inconclusive; TRPV1 PAM: -14; gsp antagonist: -4%; Menin-MLL FL inh: 4.1

What do the screens show for `O=C(c1ccc(-c2cccc([N+](=O)[O-])c2)o1)N1CCN(c2ccc([N+](=O)[O-])cc2)CC1`?
CtBP-E1A inh: -2; ClpP mod: -0.9%; gsp agonist: -1%; TRPV1 PAM: -36; gsp antagonist: -18%

Results for CCCCOC(=O)Nc1cc(OC)c(Cl)cc1OC ?
CtBP-E1A inh: 13; ClpP mod: 0.7%; Sfp PPTase inh: -4%; gsp agonist: -4%; TRPV1 PAM: 6; gsp antagonist: -17%; Menin-MLL FL inh: 2.4

What do the screens show for `CC(NC(=O)Cc1ccccc1)c1ccccc1` (centres undefined)?
ClpP mod: -0.3%; Sfp PPTase inh: 0%; gsp agonist: 11%; TRPV1 PAM: -26; gsp antagonist: 4%; Menin-MLL FL inh: -3.8

How did O=C(Nc1ccc(C(=O)N2CCOCC2)cc1)Nc1cccc(Cl)c1 do in these assays?
CtBP-E1A inh: -1; ClpP mod: 1.8%; Sfp PPTase inh: 1%; gsp agonist: 26%; TRPV1 PAM: -2; gsp antagonist: 2%; Menin-MLL FL inh: 6.3

How did CCSc1nnc(NC(=O)CCn2c(=O)oc3ccccc32)s1 do in these assays?
CtBP-E1A inh: -6; ClpP mod: 1.6%; Sfp PPTase inh: 6%; gsp agonist: -20%; TRPV1 PAM: 2; gsp antagonist: -8%; Menin-MLL FL inh: 1.9

Results for CCCCc1cc(=O)oc2cc(OC(C)C(=O)NCCN3CCOCC3)ccc12 (centres undefined) ?
CtBP-E1A inh: 1; ClpP mod: inconclusive; gsp agonist: -47%[inhibitor]

What do the screens show for `O=C(C1COc2ccccc2O1)N1CCN(c2ccccc2Cl)CC1` (centres undefined)?
CtBP-E1A inh: 6; Sfp PPTase inh: -1%; gsp agonist: -21%; TRPV1 PAM: -11; gsp antagonist: -5%; Menin-MLL FL inh: 2.7

What do the screens show for `CC(C)(C)NC(=O)NC(=O)CN1CCN(c2ccc(O)cc2)CC1`?
CtBP-E1A inh: 6; Sfp PPTase inh: -93%; gsp agonist: -8%[15.4 µM]; TRPV1 PAM: 10; gsp antagonist: -4%; Menin-MLL FL inh: -0.2

Results for COc1ccc(C(=O)NCCCN2CCOCC2)cc1OC ?
CtBP-E1A inh: 0; ClpP mod: -6.0%; Sfp PPTase inh: 23%; gsp agonist: 5%; TRPV1 PAM: -8; gsp antagonist: 14%; Menin-MLL FL inh: 2.1

What do the screens show for `COc1ccccc1NC(=O)c1cc2cc(Br)ccc2cc1O`?
ClpP mod: -2.2%; Sfp PPTase inh: inconclusive; gsp agonist: inconclusive; TRPV1 PAM: 20; gsp antagonist: inconclusive; Menin-MLL FL inh: inconclusive

Results for Cc1ccccc1NC(=O)CSc1nc2ncc(Cl)cc2[nH]1 ?
CtBP-E1A inh: -21; ClpP mod: -6.1%; Sfp PPTase inh: -7%; gsp agonist: inconclusive; TRPV1 PAM: 11; gsp antagonist: -8%; Menin-MLL FL inh: 1.4

Results for COc1ccc(NC(=O)c2cc(-c3ccc(OC)c(OC)c3)on2)cc1OC ?
CtBP-E1A inh: -11; ClpP mod: 22µM*; Sfp PPTase inh: 2%; gsp agonist: -8%; TRPV1 PAM: 4; gsp antagonist: 7%; Menin-MLL FL inh: 1.5

What do the screens show for `C=CCNC(=O)c1nc2ccccc2s1`?
CtBP-E1A inh: 3; ClpP mod: -3.6%; Sfp PPTase inh: -8%; gsp agonist: 27%; TRPV1 PAM: 4; gsp antagonist: 2%; Menin-MLL FL inh: 1.2

Results for CS(=O)(=O)c1ccc(C(=O)OCC(=O)NC(=O)Cc2ccccc2)cc1 ?
CtBP-E1A inh: -12; gsp agonist: 7%[15.4 µM]; TRPV1 PAM: 6; gsp antagonist: -8%

Results for COc1ccc(C)cc1NC(=O)CN(C)S(=O)(=O)c1ccc2c(c1)c(=O)n(C)c(=O)n2C ?
CtBP-E1A inh: -2; ClpP mod: -2.3%&-1.1%; Sfp PPTase inh: 9%; gsp agonist: 4%; TRPV1 PAM: -29; gsp antagonist: 8%; Menin-MLL FL inh: 0.6

What do the screens show for `Cc1cc(N2CCCC2=O)cc(C)c1S(=O)(=O)NCCOc1ccccc1`?
CtBP-E1A inh: 6; ClpP mod: 0.8%; Sfp PPTase inh: 6%; gsp agonist: 5%; TRPV1 PAM: -11; gsp antagonist: -18%; Menin-MLL FL inh: -0.7

What do the screens show for `N#Cc1cc([N+](=O)[O-])cnc1Nc1ccccc1`?
CtBP-E1A inh: 4; ClpP mod: -0.9%; Sfp PPTase inh: 15%; gsp agonist: -4%[15.4 µM]; TRPV1 PAM: 3; gsp antagonist: 14%; Menin-MLL FL inh: 3.5

Results for O=C(CSc1nnnn1C1CC1)Nc1cccc(S(=O)(=O)N2CCCC2)c1 ?
CtBP-E1A inh: 2; ClpP mod: -0.2%; gsp agonist: -24%; TRPV1 PAM: 6; gsp antagonist: 3%

What do the screens show for `CC[C@]12c3[nH]c4cc(CCC(=O)N(C)C)ccc4c3CCN1C(=O)[C@@H](CC(=O)NC(C)(C)C)C[C@@H]2C(=O)N1CCN(C(=O)C2CC2)CC1`?
CtBP-E1A inh: 3; ClpP mod: -1.8%; gsp antagonist: 7%

How did CC(=O)Nc1ccc(CCCCc2ccccc2)cc1 do in these assays?
CtBP-E1A inh: 3; gsp agonist: -31%[inhibitor]; gsp antagonist: 6%

What do the screens show for `C#CCOCCOCCOCCNc1nc(N2CCN(C(=O)Cn3cc(CC(C)O)nn3)CC2)nc(N2CCN(C(=O)[C@H]([C@@H](C)CC)n3cc(CCCN=C(N)N)nn3)CC2)n1` (some centres undefined)?
CtBP-E1A inh: 4; ClpP mod: -1.9%; Sfp PPTase inh: 12%; TRPV1 PAM: 19; gsp antagonist: 8%; Menin-MLL FL inh: 0.6

What do the screens show for `CCC(C)Sc1nc2c(cnn2-c2ccc(C)cc2)c(=O)[nH]1` (centres undefined)?
CtBP-E1A inh: 3; ClpP mod: 0.6%; Sfp PPTase inh: 12%; gsp agonist: -44%[inhibitor]; TRPV1 PAM: -2; gsp antagonist: 6%; Menin-MLL FL inh: 1.3

How did COc1cc(C2C(C(C)=O)=C(O)C(=O)N2c2ccc(Br)cn2)ccc1O (centres undefined) do in these assays?
CtBP-E1A inh: -1; ClpP mod: -0.5%; Sfp PPTase inh: -7%; gsp agonist: inconclusive; TRPV1 PAM: -4; gsp antagonist: -21%; Menin-MLL FL inh: -1.6
